High-throughput results deposited in PubChem by Southern Research Institute.
Mtb growth: Mycobacterium tuberculosis H37Rv growth inhibition, cell based, confirmatory dose response (AID 1949) | M. tuberculosis H37Rv growth inhibition | most inactive calls were filed without a number and no value below 0 was filed | inhibition, % at 10 µg/mL, or IC50 in µg/mL where a hit was titrated | 1.6% of 100,000 active;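 active means confirmed in a dose series; inconclusive means about 50% or more but not retested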;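 further: bacteria grown 7 days with compound before Alamar blue readout; 0% = untreated bacteria and 100% = reference antibiotic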
* marks the source's active call; other numbers are inactive results; i = inactive; ? = inconclusive. A portion of the library; rates above refer to the full screens.

mol,Mtb growth
O=C(O)c1cccc(NS(=O)(=O)c2ccc(NC(=O)c3ccco3)cc2)c1,i
CCOC(=O)N1CCc2c(sc(NC(=O)CN3CCCCC3)c2C(=O)Nc2cccc(C)c2)C1,i
COc1ccc(S(=O)(=O)NCc2cccnc2)cc1Br,0.9%
CCCC(=O)Nc1ccc(N2CCN(C(=O)c3ccccc3)CC2)cc1,i
O=C(Nc1cccc(Cl)c1)Nc1c(F)cccc1F,0.5%
Cc1cc(NC(=O)Nc2ccc(Cl)c(Cl)c2)no1,i
COc1cc(OC)c(C(=O)Nc2ccccc2C(C)(C)C)cc1OC,i
CCOC(=O)C(Oc1cc2oc(=O)c(CC(=O)OC)c(C)c2cc1Cl)c1ccccc1 (stereo not given),i
CCCCC(CC)C(=O)Nc1ccc2ccccc2c1 (stereo not given),i
Cc1cc(Br)c(NC(=O)c2ccc(F)cc2)cc1C,i
COC(=O)c1c(NC(=S)N2CCN(c3ccc(Cl)c(Cl)c3)CC2)sc2c1CCC2,i
COc1cc(C23CC4CC(CC(C4)C2)C3)ccc1C(=O)n1ccnc1,i
S=C(Nc1ccc(Nc2ccccc2)cc1)N1CCN(Cc2ccccc2)CC1,i
Cc1c(NC(=O)c2cc3c(s2)CCCC3)c(=O)n(-c2ccccc2)n1C,i
Cn1c(SCc2ccc(Br)cc2)nnc1-c1ccccc1,i
CCNC(=O)C(=O)Nc1ccccc1CC,i
CCc1ccc(NC(=O)c2cc(OC)c(OC)cc2OC)cc1,1.3%
Cc1c(C(=O)Nc2nnc(CC(C)C)s2)cccc1[N+](=O)[O-],i
O=C(Cc1ccc(Br)cc1)Nc1nnc(C2CCCCC2)s1,i
Oc1ccc(Br)cc1C=NN1CCN(c2ccccn2)CC1,i
COc1ccc(-c2[nH]ncc2-c2ccccc2Cl)c(O)c1,i
CC1CCCC(N2CCN(Cc3ccc(Br)cc3)CC2)C1 (stereo not given),i
O=C(NCCN1CCN(C(=O)c2cccc(Br)c2)CC1)C(=O)NCc1ccccc1,i
O=C(Cc1ccccc1)Nc1ccccc1-c1nc2ccccc2s1,i
O=c1c([N+](=O)[O-])c(N2CCN(Cc3ccc(Cl)cc3)CC2)c2ccccc2n1-c1ccccc1,i
Cc1ccccc1CSCCNS(C)(=O)=O,i
COc1ccc(C(=O)Nc2ccccc2C(F)(F)F)cc1Cl,i
CCOC(=O)Cc1ccc(NS(=O)(=O)Cc2ccccc2)cc1,i
N#Cc1c(NC(=O)C2C3C=CC(C3)C2C(=O)O)sc2c1CCCCC2 (stereo not given),i
CC(Oc1ccc(Br)cc1)C(=O)N1CCCCCC1 (stereo not given),i
C=CCn1c(Cc2ccccc2)nnc1SCC(=O)c1ccc(Br)cc1,i
COC(=O)COc1ccccc1/C=C(/C#N)c1nc2ccc(C)cc2[nH]1,23.6%
Cc1cccc(C(=O)Nc2sc3c(c2C(=O)N2CCOCC2)CCC3)c1,i
C=CCc1cccc(C)c1OCCCCN1CCCCC1,i
COc1ccc(S(=O)(=O)N2CCC(Cc3ccccc3)CC2)cc1OC,i
COc1ccc(CCNC(=O)CN(c2cccc([N+](=O)[O-])c2)S(C)(=O)=O)cc1,i
CC(C)OCCCNC(=S)N1CCC(C(N)=O)CC1,i
CC(=O)OC(COc1cc(C)ccc1Cl)Cn1cnc2ccccc21 (stereo not given),3.4%
C=CCc1ccccc1OCCCCN1CCC(C)CC1,i
CC(C)(C)c1ccc(OCC(=O)Nc2ccc(S(=O)(=O)N3CCc4ccccc43)cc2)cc1,i
Cc1ccc(Nc2ncnc3c2cnn3Cc2ccccc2)cc1,?
CCCCNc1ncnc(N)c1[N+](=O)[O-],i
CCc1cccc(OCC(=O)Nc2ccccc2C(N)=O)c1,i
Cc1ccc(S(=O)(=O)CC(=O)Nc2ccc(Br)cc2)cc1,i
Cc1nn(Cc2ccc(F)cc2)c(C)c1NC(=O)c1cc2ncc(Br)cn2n1,i
Cc1ccc(S(=O)(=O)NC(=O)Nc2cccc(F)c2)cc1,i
Cc1ccccc1C(=O)Nc1ccc(S(=O)(=O)N2CCCC(C)C2)cc1 (stereo not given),i
COc1ccc(CCNC(=O)C2CCN(S(C)(=O)=O)CC2)cc1,i
Cc1noc(C)c1C(=O)Nc1ccc(Cl)cc1C(F)(F)F,i
O=C(CSc1ccccc1)N1CCC2(CC1)OCCO2,i
CSC1CCCCC1(O)CSc1nc2ccccc2o1 (stereo not given),i
Oc1ccc(Br)cc1C=Nn1c(-c2ccc(Cl)cc2Cl)n[nH]c1=S,i
O=C(Cn1nnc(-c2ccc3c(c2)OCO3)n1)Nc1ccccc1Cl,i
O=C(CS(=O)(=O)Cc1ccccc1)N1CCN(c2ccccc2F)CC1,2.3%
COc1ccc(NC(=O)Cc2cccs2)cc1Cl,i
CN(CC(=O)NCCC1=CCCCC1)S(=O)(=O)c1ccc(Cl)cc1,i
CCC(=O)n1nc(-c2ccc(Cl)cc2)nc1N,6.1%
CCOc1ccc(S(=O)(=O)N2c3ccccc3CC2C)c2ccccc12 (stereo not given),i
O=C1CC(Cc2ccccc2)(c2ccccc2)C(=O)N1 (stereo not given),0.2%
COc1ccc(C2C(C#N)=C(N)Oc3n[nH]c(-c4ccccc4)c32)cc1CSc1ccccn1 (stereo not given),0.6%

Five neighbouring entries from above, quoted:
mol,Mtb growth
COc1ccc(CCNC(=O)C2CCN(S(C)(=O)=O)CC2)cc1,i
Cc1noc(C)c1C(=O)Nc1ccc(Cl)cc1C(F)(F)F,i
O=C(CSc1ccccc1)N1CCC2(CC1)OCCO2,i
CSC1CCCCC1(O)CSc1nc2ccccc2o1 (stereo not given),i
Oc1ccc(Br)cc1C=Nn1c(-c2ccc(Cl)cc2Cl)n[nH]c1=S,i

Next part:
mol,Mtb growth
CCN1CCN(C2CCN(Cc3cccc4ccccc34)CC2)CC1,i
O=C(c1ccc(Cn2cc(Br)cn2)cc1)N1CCN(c2ccccc2)CC1,i
NS(=O)(=O)c1ccc(NS(=O)(=O)c2cccs2)cc1,i
O=c1cc(-c2ccccc2)nc(SCc2ccc(Cl)cc2)[nH]1,i
CC(=O)c1ccc(NC(=O)CSc2nnc(NC(=O)c3cccc4ccccc34)s2)cc1,i
CS(=O)(=O)N(Cc1ccc(C(=O)Nc2ccccc2-c2ccccc2)cc1)c1ccccc1,i
O=C(NC(=S)Nc1nc(-c2ccc(Br)cc2)cs1)c1cccs1,0.5%
O=C(Nc1ccc(NC(=S)NC(=O)c2ccccc2Br)cc1)c1cccc(Cl)c1,i
O=C(O)C1C2CCC(O2)C1C(=O)Nc1ccc2c(c1)OCCO2 (stereo not given),i
COc1cc([N+](=O)[O-])ccc1NC(=S)N1CCN(C(c2ccccc2)c2ccccc2)CC1,i
Cc1ccc(NS(=O)(=O)Cc2ccccc2)nc1,i
CC(C)c1ccc(C(=O)N2CCN(c3ccc(Cl)cc3)CC2)cc1,i
COc1cc(NC(=O)COc2ccc(C)cc2C)c(OC)cc1Cl,5.8%
C=CCn1c(SCC(=O)Nc2ccc(Cl)c(Cl)c2)nnc1-c1cccnc1,i
CN(c1cccc(NC(=O)c2ccc(N(C)S(=O)(=O)c3ccccc3)cc2)c1)S(C)(=O)=O,i
Cc1ccc(-c2nnc(Nc3cccc(O)c3)c3ccccc23)cc1S(N)(=O)=O,4.7%
CCCOc1ccc(/C=C2\SC(N3CCCCC3)=NC2=O)cc1,i
O=C(CSc1nnc(CCCOc2ccc(Cl)cc2Cl)o1)Nc1nc2ccccc2s1,i
CN1CCN(C(=O)N2c3ccccc3CCc3ccccc32)CC1,i
COCCCNC(=O)CN(c1ccc(Cl)c(Cl)c1)S(C)(=O)=O,i
Cc1nn(C)c(C)c1NC(=S)Nc1ccc(Cl)cc1Cl,i
C=CCN(CC=C)C(=O)c1cccc(OC)c1,i
O=C(Cc1cccs1)NCc1ccc(C(=O)O)cc1,3.0%
COC(=O)c1c(NC(=S)NNC(=O)c2ccc(Cl)s2)sc(C(=O)N(C)C)c1C,i
Cc1sc2nc(SCC(=O)NCc3cccs3)n(-c3ccccc3)c(=O)c2c1C,i
CC(=O)c1ccc(COc2ccc([N+](=O)[O-])cc2)cc1,8.6%
O=C(CCc1nc(-c2ccccc2F)no1)Nc1cccnc1,i
COC(=O)c1cc(OC)c(OC)cc1NC(=O)c1cccs1,6.7%
COC(=O)CSc1nnc(-c2ccc(Cl)cc2)o1,<0.1µg/mL*
COc1ccc(Cl)cc1S(=O)(=O)Nc1ccncc1,i
c1ccc2c(c1)oc1c(N3CCN(C4CCCC4)CC3)ncnc12,0.2%
Nc1nc(-c2c(F)cccc2F)cs1,i
COc1ccc(C)cc1S(=O)(=O)n1c(C)nc2ccccc21,i
CC(=O)N1c2ccccc2NC(=O)C1(C)C,i
COc1ccccc1Nc1nc(-c2sc(C)nc2C)cs1,2.1%
O=C(NC(=S)Nc1ccc(Cl)cc1)C1CCCCC1,i
CSc1ccccc1C(=O)Nc1ccc(S(=O)(=O)N2CCCC2)cc1,i
O=C(NC(=S)Nc1ccccc1Br)C(c1ccccc1)c1ccccc1,i
O=C(Nc1nc2c(s1)CCCC2)c1cccc(Cl)c1,28.6%
Cc1occc1C(=O)Nc1cccc(Br)c1,i
O=C(COc1ccc(S(=O)(=O)NCc2ccccc2)cc1Cl)NCC1CCCO1 (stereo not given),i
O=C(c1cccnc1)N1CCc2ccccc2C1,i
O=C(CSc1nnc(-c2ccccc2)n1-c1ccccc1)Nc1nc2ccccc2s1,i
COc1ccc(C(=O)Nc2ccc(NC(=O)c3ccccc3F)cc2)c(OC)c1,i
CN1C(=O)c2cccc3c(S(=O)(=O)Nc4ccccn4)ccc1c23,i
Cc1ccc(SC(C)C(=O)NCc2ccco2)cc1 (stereo not given),i
COc1ccc(OC)c(C(C)NC(=S)Nc2ccc3c(c2)OCO3)c1 (stereo not given),i
O=C(NCCC1=CCCCC1)C(=O)NCCN1CCOCC1,i
O=C(Nc1ccccc1N1CCCCC1)c1cccc(F)c1,2.0%
CCC(C)c1ccc(OCCCn2cnc3ccccc3c2=O)cc1 (stereo not given),15.2%
COc1ccc(/C=N\N2CCN(Cc3ccc(C)cc3)CC2)cc1,2.2%
COC(=O)C12C(=O)Oc3ccc4ccccc4c3C1C2(C)C(=O)c1ccc(C)cc1 (stereo not given),i
COC(=O)c1c(-c2ccc(Br)cc2)csc1NC(=O)c1ccc2c(c1)OCO2,i
N#C/C(=C\C=C\c1ccccc1)c1nc(-c2ccccc2)cs1,i
Nc1cc(C(=O)N2CCCC2)ccc1N1CCCC1,i
CCOC(=O)c1c(C)oc2ccc(OC(=O)c3cc4ccccc4o3)cc12,?
Cc1cccc(CN2CCN(Cc3ccc(Cl)cc3)CC2)c1,i
Cc1ccc([N+](=O)[O-])cc1NC(=O)COc1ccc(Br)cc1,i
CCc1ccc(NC(=O)CSc2ncnc3sc(-c4ccccc4)cc23)cc1,i
O=C(O)C1CC=CCC1C(=O)N1CC=C(c2ccccc2)CC1 (stereo not given),i

Reformatted with each value named: part of the list above.
> COC(=O)C12C(=O)Oc3ccc4ccccc4c3C1C2(C)C(=O)c1ccc(C)cc1 (stereo not given)
  Mtb growth: i
> Nc1cc(C(=O)N2CCCC2)ccc1N1CCCC1
  Mtb growth: i
> COc1ccc(C(=O)Nc2ccc(NC(=O)c3ccccc3F)cc2)c(OC)c1
  Mtb growth: i

Next section
mol,Mtb growth
Cc1ccc(S(=O)(=O)N2CCN(c3ccc([N+](=O)[O-])c(N4CCOCC4)c3)CC2)cc1C,i
O=C(Nc1ccc2c(c1)OCCO2)C1CCN(S(=O)(=O)c2ccccc2)CC1,1.8%
CCCc1cc2c(cc1N)OCO2,i
CCc1ccc(N(CC(=O)Nc2ccc(OC)c(OC)c2)S(C)(=O)=O)cc1,i
CN(C)C(=O)CN(c1cccc(Br)c1)S(C)(=O)=O,i
CSc1nc2c(c(-c3ccc(O)cc3)c1C#N)CCC2,i
CCOC(=O)C1=C(c2ccccc2)NC(=S)NC1c1ccccc1OCc1ccccc1C#N (stereo not given),2.7%
CCc1ccc(C(=O)Nc2ccc(N3CCN(C)CC3)cc2)cc1,i
CCn1nnnc1Oc1ccc(Cl)cc1,0.4%
CC(C)C(=O)N1CCN(c2c(Cl)cccc2[N+](=O)[O-])CC1,1.9%
COC(=O)C12CCC(C)(C(O)C1)C2(C)C (stereo not given),i
COc1ccc(C(=O)NCC(=O)OCc2ccccc2F)cc1,i
CN(C)CCOCCOc1cccc2ccccc12,0.5%
CCC(=O)NC(=S)Nc1cccc2ncccc12,1.8%
FC(F)(F)c1cccc(NC(=S)NCCc2ccncc2)c1,0.0%
CCOC(=O)NNC1CC(=O)N(c2ccc(OC)cc2)C1=O (stereo not given),i
COc1ccc(NC(=O)C2C(c3ccccc3)C2(Cl)Cl)c(OC)c1 (stereo not given),5.8%
CN1CC(CO)O/C1=C(C#N)\C=C1\Nc2ccccc2C1=O (stereo not given),?
Oc1ccc(NCc2ccc(OCc3ccccc3)cc2)cc1,2.3%
Cc1cc(NC(=O)c2cc(-c3ccc4c(c3)OCO4)nc3ccccc23)no1,i
CNC(=O)c1cc2ccc(OC)cc2oc1=O,i
Cc1ccc(NC(=O)c2ccc(CN3CCOCC3)cc2)cc1Cl,i
